Bioassay records as filed in PubChem BioAssay.
HTT prom inh: HTT promoter inhibition; 48,000 tested, 0.93% active; HEK293 HTT promoter firefly luciferase reporter (activity 0% = vehicle and -100% = no light), 24 h; Potency, µM (highest dose often 57.5 µM), for inactives: at the top dose activity change, negative = inhibition, actives largely listed as inhibitors; AID 1508623; active = well fitted inhibition curve with a large enough effect; inconclusive = small, poorly fitted or top-dose-only effect; inactive = no such curve, though single readings can be large or run the other way; note: nearly all actives have a fitted effect of over 50% in size
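Luminescence was read after Dual-Glo reagent and a 10 min room-temperature incubation. Values were normalized to vehicle (0% activity) and zero RLU (-100% activity). Reporter HEK293 cells had been exposed to compounds (up to 57.5 uM final) for 24 h.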
PMP22 txn prim: PMP22 gene transcription modulation; S16 Pmp22-F2sN Schwann cells (luciferase reporters placed in the Pmp22 gene), FLuc/NLuc coincidence luminescence, 24 h; Potency, µM (doses to about 57.5 µM), for inactives: at the highest dose activity change, negative = inhibition, actives largely listed as inhibitors; 43,000 tested, 2% active; AID 1508649; active = clear falling dose curves in both reporters; inconclusive = both reporters move, but less clearly or upward; inactive = either reporter flat; the % is the NLuc reporter signal; note: % is set by controls: 0 for no effect and ±100 for the full control effect; some results filed as inactive show a strong effect at the top dose
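Reporter cells (S16 Pmp22-F2sN, 500–1,000 per well) exposed to compounds for 24 h, 37C, 5% CO2; lysis with FLuc read after 10 min, then Stop&Glo and NLuc read after 10 min.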
Numbers without * were called inactive; ? = inconclusive; . = no result given; [ ] = remark or other dose. Potency is the fitted concentration of half-maximal effect.

SMILES	HTT prom inh	PMP22 txn prim
COc1ccccc1NC(=O)c1sc2ncn(Cc3ccccc3Cl)c(=O)c2c1C	-0.6%	-5.2%
Cc1ccc(-c2c(C(=O)Nc3ccccc3F)oc(=O)c3ccccc23)cc1	?	?
Cc1ccc(-c2nnc3ccccc3c2C(=O)Nc2ccc(C)c(F)c2)cc1	31.5%[activator]	1.4%
COC(=O)c1cc2sccc2n1Cc1c(C)cc(C)cc1C	0.7%	-9.5%
CCOc1ccc(CNS(=O)(=O)c2ccc(-c3coc(C)n3)cc2)cc1OC	25.1µM*	?
Cc1nc(-c2ccc(F)cc2)sc1CCNC(=O)C(=O)Nc1ccc2c(c1)OCO2	-25.5%	?
O=C(OCc1cc(=O)n2nc(-c3cccs3)sc2n1)c1ccc(Cl)cc1	1.2%	15.2%
COc1ccccc1CNC(=O)c1cc2cc(C)ccc2n1C	?	-12.3%
COc1ccccc1CNC(=O)Cn1cc2c(n1)-c1c(oc(C(=O)N3CCOCC3)c1C)CC2	?	-19.4%
COc1ccc(C)cc1NC(=O)C1COc2ccccc2C1 (centres undefined)	-16.3%	19.8%

As entered above:
HTT prom inh with COc1ccccc1NC(=O)c1sc2ncn(Cc3ccccc3Cl)c(=O)c2c1C is entered as -0.6%
PMP22 txn prim with COc1ccccc1CNC(=O)Cn1cc2c(n1)-c1c(oc(C(=O)N3CCOCC3)c1C)CC2 is entered as -19.4%

Carrying on:
SMILES	HTT prom inh	PMP22 txn prim
Cc1cc(Nc2ccc(Cl)cc2)n2cnnc2n1	-6.3%	-4.6%
CCN(Cc1ccccc1)Cc1c(O)ccc2c(=O)c(-c3ccccc3Cl)coc12	-24.4%	6.1%
CCOc1ccc(N2CC(NC(=O)c3ccc(Cl)cc3)CC2=O)cc1 (centres undefined)	-6.6%	1.5%
Cc1ccc(-c2c(C(=O)N3CCN(c4cccc(C)c4C)CC3)oc(=O)c3ccccc23)cc1	?	?
COc1ccc(NC(=O)CCn2nc(-c3ccccc3OC)c3c(C)cc(C)nc32)cc1	?	-26.9%
COC(=O)c1ccc2c(=O)n(CCCCCC(=O)NCc3ccccc3)c(=O)[nH]c2c1	-7.4%	-8.6%
COc1cc(NC(=O)CSc2nc3nc(C)c(Cc4ccccc4Cl)c(C)n3n2)cc(OC)c1	-18.9%	0.7%
CCc1cnc2c(c1SCC(=O)N1CCC(C)CC1)c(=O)n(C)c(=O)n2C	-20.3%	-1.6%
COc1ccc(-c2nc(N3CCOCC3)c3sc(CN(C)c4ncc(C(=O)NO)cn4)cc3n2)cn1	109.3%[activator]	.
O=C(CCC1N=C2c3ccccc3N=C(SCc3ccccc3F)N2C1=O)NCc1ccccc1 (centres undefined)	6.1%	?

Entries above containing fluorine, in the order listed:
SMILES	HTT prom inh	PMP22 txn prim
Cc1ccc(-c2c(C(=O)Nc3ccccc3F)oc(=O)c3ccccc23)cc1	?	?
Cc1ccc(-c2nnc3ccccc3c2C(=O)Nc2ccc(C)c(F)c2)cc1	31.5%[activator]	1.4%
Cc1nc(-c2ccc(F)cc2)sc1CCNC(=O)C(=O)Nc1ccc2c(c1)OCO2	-25.5%	?
O=C(CCC1N=C2c3ccccc3N=C(SCc3ccccc3F)N2C1=O)NCc1ccccc1 (centres undefined)	6.1%	?

The results go on:
SMILES	HTT prom inh	PMP22 txn prim
Cc1ccc(C)c(Nc2nc3c(S(=O)(=O)c4ccc(Br)cc4)nnn3c3ccsc23)c1	?	?
CCOc1cc(C(=O)Nc2ccc(-c3cn4cccnc4n3)cc2)cc(OCC)c1OCC	-18.2%	-3.1%
Cc1cc(C)cc(C(=O)N2CC(=O)Nc3ccc(C)cc3C2c2ccccc2)c1 (centres undefined)	?	?
Cc1cnc(-c2cnc(NCCNc3ccc(C#N)cn3)nc2-c2ccc(Cl)cc2Cl)[nH]1	-22.4%	.
Cc1nc(SCC(=O)Nc2ccccc2F)[nH]c(=O)c1Cc1ccccc1	-0.6%	-0.5%
Cc1cc(C)cc(OCC(=O)Nc2ccc(-c3nc4ccccc4o3)cc2)c1	24.9%	?
COc1ccc(NC(=O)CN2C(=O)c3cccnc3Sc3ccccc32)cc1OC	9.0%	-1.6%
Cc1ccccc1NC(=O)CSc1ccc(-c2cccs2)nn1	-7.1%	-53.0%
Cc1ccc2c(c1)c1c(c(=O)n(Cc3ccccc3)c(=O)n1Cc1cccc(C(F)(F)F)c1)n2C	-6.1%	-15.1%
O=C(NCc1ccc(F)cc1)c1cc(Sc2ccc(F)cc2F)nc2ccccc12	?	-30.0%
CCc1ccc(NC(=O)CSc2ncc(S(=O)(=O)c3cc(C)ccc3C)c(=O)[nH]2)cc1	-6.3%	-20.3%
COc1ccc(-c2nc(CS(=O)(=O)CC(=O)NCc3ccccc3Br)c(C)o2)cc1	-15.1%	13.7%
Cc1ccccc1Cn1nnc2sc3c(c2c1=O)CCCC3	-7.7%	1.8%
CCN(CC)S(=O)(=O)c1ccc2c(c1)c(=O)c(C(=O)N1CCN(c3cccc(C)c3)C(C)C1)cn2C (centres undefined)	2.4%	-27.6%
COc1cc(OC)cc(C(=O)Nc2ccc(S(=O)(=O)Nc3cc(C)nc(C)n3)cc2)c1	16.6%	30.4%
Cc1cn2c(=O)c(S(=O)(=O)NCCc3ccc(Cl)cc3)c(C)nc2s1	-7.6%	4.0%
COC(=O)C1=C(c2ccccc2)c2ccccc2S(=O)(=O)N1CC(=O)Nc1ccc(F)c(F)c1	-33.8%	?
COc1ccc(N2CCN(C(=O)c3cc4c(s3)-c3ccccc3OC4)CC2)cc1	1.8%	-11.2%
O=C(Cc1ccccc1)NC1CC(=O)N(c2ccccc2)C1 (centres undefined)	-17.9%	?
COC(=O)c1ccc(C(=O)OC)c(NC(=O)c2c(-c3ccccc3)c(-c3ccccc3)nn(C)c2=O)c1	-23.0%	?
COc1ccc(-n2nc(C(=O)Nc3ccc(Cl)cn3)c3c4ccccc4n(C)c3c2=O)cc1Cl	-13.0%	9.6%
COc1cc2c(=O)n(Cc3ccccc3Cl)c(=O)n(CC(=O)Nc3ccc(C)c(C)c3)c2cc1OC	-0.3%	?
CCC(C(=O)OCc1cc(=O)n2nc(CCOC)sc2n1)c1ccccc1 (centres undefined)	-12.5%	?
CC(Oc1ccc(F)cc1)C(=O)N1CCC(c2nc3ccccc3s2)CC1 (centres undefined)	?	?
CCn1cc(S(=O)(=O)c2cccc(Cl)c2)c(=O)c2cc(F)c(N3CCN(c4ccccc4)CC3)cc21	?	12.9%
Cc1cc(F)ccc1NC(=O)CCS(=O)(=O)c1ccc2c(c1)NC(=O)CO2	-5.9%	1.9%
CCOC(=O)c1c(C)[nH]c(C)c1S(=O)(=O)N1CCCC(C(=O)NCc2cccc(OC)c2)C1 (centres undefined)	-8.7%	52.3%
CC(C)OC(=O)c1ccc(NC(=O)CSc2nc(-c3cccs3)cc(C(F)(F)F)n2)cc1	?	?
CC(C)(C)OC(=O)N1CCC(c2c(C(=O)N3CCN(c4ccccc4F)CC3)cnn2C(C)(C)C)CC1	-24.8%	?
CCc1ccccc1NC(=O)c1cc(S(=O)(=O)NCCc2ccc(OC)c(OC)c2)ccc1F	?	-7.8%
Cn1c(=O)oc2cc(S(=O)(=O)N3CCC(C(=O)NCc4ccccc4Cl)CC3)ccc21	-14.7%	-17.5%
Cc1cc(C)cc(NC(=O)C2CCCN(c3nnc(C)c4c(C)n(-c5ccccc5)nc34)C2)c1 (centres undefined)	-12.2%	-25.6%
Cc1cc(C)cc(-n2c(SCC(=O)N3CCCCC3)nc3c([nH]c4ccccc43)c2=O)c1	-18.5%	?
O=C(c1ccc2c(Cl)c3c(nc2c1)CCCC3)N1CCN(c2cccc(Cl)c2)CC1	-14.3%	?
COc1c(C)cc(S(=O)(=O)NCCc2c(C)[nH]c3ccccc23)c(C)c1C	-5.4%	-1.0%
Cc1noc(C)c1S(=O)(=O)N(CC(=O)NCCc1ccccc1)c1ccc(C(C)C)cc1	-13.7%	-22.5%
O=C(NCCc1ccccc1)c1cc(Sc2ccc(F)cc2F)nc2ccccc12	?	-15.9%
CCCCN(CC)C(=O)CCNS(=O)(=O)c1ccc2c(c1)c(=O)n(C)c(=O)n2C	-7.8%	?
Cc1oc2ncn(C)c(=O)c2c1C(=O)NCCCN1CCCCC1C (centres undefined)	-13.3%	-8.4%
Cc1ccc(NC(=O)Cn2c(=O)n(CCCCC(=O)NCCc3ccc(Cl)cc3)c(=O)c3ccccc32)cc1	-8.8%	?
COc1cccc(CNC(=O)CCCN2C(=O)CSc3c2c(C)nn3-c2ccccc2)c1	-23.1%	7.2%
COc1ccc(CNC(=O)C(=O)NCC(c2ccco2)S(=O)(=O)c2ccc(Cl)cc2)cc1 (centres undefined)	?	-4.9%
Cc1ccc(NC(=O)NCCOCCn2c(=O)oc3ccccc32)cc1C	-10.4%	-15.2%
CC[N+]1(CC)CCC(=C(c2ccccc2)c2ccccc2)C1C (centres undefined)	1.4%	.
COc1cccc(C(c2sc3nc(-c4ccco4)nn3c2O)N2CCC(O)CC2)c1 (centres undefined)	5.2%	9.8%
CCOc1ccc(-n2ccnc2SCC(=O)Nc2cccc3ccccc23)cc1	?	?
Cc1ccc(S(=O)(=O)C(CNS(=O)(=O)c2ccc(F)c(C)c2)c2cccs2)cc1 (centres undefined)	?	?
COC(=O)c1sccc1S(=O)(=O)N(CC(=O)Nc1cccc(C)c1C)c1ccc(C)c(C)c1	-29.5%	?
Cc1oc2c(C)c3oc(=O)c(CCC(=O)N4CCCCC4)c(C)c3cc2c1C	-13.3%	-76.9%
Cc1cc(C)cc(NC(=O)CN2C(=O)c3ccccc3Sc3ncccc32)c1	-24.3%	-19.5%
(list continues)
SMILES	HTT prom inh	PMP22 txn prim
CC1CCN(c2ncnc3c2c(-c2ccccc2)cn3-c2ccc(Br)cc2)CC1	-14.4%	-0.5%
O=C(CC(NCc1cccnc1)C(=O)O)Nc1ccc(F)cc1 (centres undefined)	-1.1%	-3.8%
COc1cccc(CNC(=O)c2nn(-c3ccc(C)cc3)c(=O)c3c2c2ccccc2n3C)c1	-25.1%	?
CCOc1ccc(C(=O)c2cn(CC(=O)Nc3ccc4c(c3)OCO4)c3ccc(OCC)cc3c2=O)cc1	-19.8%	?
COc1cc(CNCCSc2nnnn2C)ccc1OCc1ccc(Cl)cc1Cl	-19.2%	?
Cc1ccc(CNC(=O)c2ccc3c(=O)n(-c4ccccc4)c(=O)[nH]c3c2)cc1	-16.7%	16.9%
O=C(NCCc1ccccc1)c1ccc2c(c1)N(Cc1ccc(F)cc1)C(=O)c1ccccc1S2	11.6%	-10.7%
CCN1CCN(c2cc3c(cc2F)c(=O)c(S(=O)(=O)c2cc(C)cc(C)c2)cn3CC)CC1	-11.6%	?
COc1cc(OC)c(OC)cc1CNCCSc1nnnn1-c1ccccc1	-17.2%	-27.1%
CO[C@@]1(NC(=O)Cc2cccs2)C(=O)N2C(C(=O)O)=C(COC(N)=O)CS[C@@H]21	4.3%	.
COc1ccc(/C=C/C(=O)Nc2ccc(Cl)cc2Cl)cc1	-12.6%[11.5 µM]	22.6%
CSc1nc2c(sc3ccccc32)c(=O)n1Cc1ccc(C)cc1	-3.0%	?
CCOC(=O)N1CCc2c(sc(NCc3ccc(OCC)cc3)c2C(=O)Nc2ccc(OC)cc2OC)C1	10µM*	-4.4%
Cc1nc2ccc(S(=O)(=O)N(CC(=O)Nc3cccc(Cl)c3)Cc3ccccc3)cc2s1	?	?
Cc1cc(C)c(S(=O)(=O)NCC(c2cccs2)S(=O)(=O)c2ccccc2)c(C)c1 (centres undefined)	-29.4%	?
Cc1c(C(=O)N2CCCCC2)c(S(=O)(=O)NCc2ccc(N(C)C)cc2)c(C)n1C	10.3%	12.9%
COc1ccc(OC)c(NC(=O)c2c(NCc3ccc(C)o3)sc3c2CCCCC3)c1	4.4%	?
Cc1nnc(N2CCN(C(=O)NC(C)C)CC2)c2nn(-c3ccccc3)c(C)c12	-5.8%	?
Cc1ccc(Nc2c(-c3ccc(C)s3)nc3ccccn23)cc1	38.1%[activator]	-18.5%
COc1ccc(N(Cc2cccs2)C(=O)c2ccco2)cc1	-25.8%	2.2%
CCOc1ccc(OCC)c(NC(=O)c2nnn(CC(=O)Nc3cc(Cl)ccc3OC)c2N)c1	?	11.3µM*
COc1ccccc1N1CCN(S(=O)(=O)c2c(C)sc3ncn(CC(=O)NCCN(C)C)c(=O)c23)CC1	0.1%	?
CN(c1nnc(NC(=O)Nc2ccc(Br)cc2)s1)C1CCCCC1	28.2%	-73.0%
O=c1ccc2cc(S(=O)(=O)Nc3ccc(F)c(Cl)c3)ccc2[nH]1	-18.1%	-19.8%
Cc1cc(C)c2nc(NC(=O)c3ccc(S(=O)(=O)N4CCc5ccccc54)cc3)sc2c1	-13.3%	-34.7%
CN(C(=O)C1CCN(c2ncnc3c2nc2n3CCCCC2)CC1)c1ccccc1F	?	?
Cc1c(C(=O)Nc2ccccc2)sc2nc(-c3cc4cc(Cl)ccc4oc3=O)[nH]c(=O)c12	1.2%	-0.5%
Cc1cc(C)cc(NC(=O)c2cc(S(=O)(=O)N3CCC(C)CC3)cn2C)c1	-20.4%	-20.4%
O=C(Oc1ccccc1Cl)c1cc(-c2ccc3c(c2)OCCO3)on1	35.3%[activator]	?
COc1cccc(CNC(=O)CSc2nc(=O)[nH]c3c2CCCC3)c1	-8.0%	6.3%
Cc1ccc(Cl)cc1NC(=O)c1nnn(Cc2ccccc2)c1N	?	-26.8%
COc1ccccc1NC(=O)n1ncc2c(C)cccc21	10.3%	-3.3%
